# NOMO-1 viab – NOMO-1 AML cell viability reduction, primary screen, STK33 inhibitor project, CellTiter-Glo luminescence. inhibition, % (no concentration beside the values). NOMO-1 AML viability, 72 h. hit rate 7.5% among 37,000;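 active = most replicates above 80%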;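 note: wells of about 30 µL received 25 nL stock; 0% = median of vehicle wells and 100% = reference inhibitor level; the first replicate is given; inactives centre near 10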
# * marks the source's active call; other numbers are inactive results. Only part of the results is shown; rates above refer to the full screens.
SMILES,NOMO-1 viab
C[C@@H]1CN([C@H](C)CO)C(=O)c2cc(NC(=O)C3CC3)ccc2O[C@H]1CN(C)C(=O)Nc1cccc2ccccc12,12
C[C@@H]1CN([C@H](C)CO)C(=O)Cc2cc(NS(=O)(=O)c3ccc(F)cc3)ccc2O[C@H]1CN(C)C(=O)Nc1ccc2c(c1)OCO2,-4
CC(C)OC(=O)CSc1nnc(-c2ccccn2)n1-c1ccccc1,-6
COc1ccc([N+](=O)[O-])cc1NC(=O)CN(c1ccc(C)cc1C)S(C)(=O)=O,-8
C[C@@H]1CN([C@H](C)CO)C(=O)c2cc(NS(=O)(=O)c3ccc(F)cc3)ccc2O[C@H]1CN(C)S(=O)(=O)c1ccc(Cl)cc1,-7
C[C@@H]1CN([C@@H](C)CO)C(=O)c2cc(NS(=O)(=O)c3cn(C)cn3)ccc2O[C@@H]1CN(C)Cc1ccc(Oc2ccccc2)cc1,9
Cc1ccc(S(=O)(=O)N2c3ccccc3C(C)(c3ccccc3)CC2(C)C)cc1 (stereo unspecified),108*
COc1ccc(NC(=O)Nc2ccc3c(c2)C(=O)N([C@@H](C)CO)C[C@@H](C)[C@@H](CN(C)S(C)(=O)=O)O3)cc1,-1
COC(=O)c1cccc(N=C(N)N=C(N)N)c1,-9
C[C@H](CO)N1C[C@H](C)[C@@H](CN(C)C(=O)Nc2ccc3c(c2)OCO3)Oc2c(NC(=O)Nc3cccc4ccccc34)cccc2C1=O,23
C[C@@H]1CN([C@@H](C)CO)C(=O)c2cc(NC(=O)Nc3ccc(C(F)(F)F)cc3)ccc2O[C@@H]1CN(C)C(=O)Nc1cccc2ccccc12,78
Cc1noc(C)c1S(=O)(=O)Nc1ccc2c(c1)C(=O)N([C@H](C)CO)C[C@H](C)[C@H](CN(C)Cc1ccc(C(F)(F)F)cc1)OCCCC[C@@H](C)O2,68
C[C@H](CO)N1C[C@H](C)[C@@H](CN(C)C(=O)NC2CCCCC2)Oc2ccc(NS(C)(=O)=O)cc2C1=O,10
Cc1ccc(C(=O)CSc2nsc3sc(C(=O)c4ccc(C)cc4)c(N)c23)cc1,16
C[C@@H]1CN([C@H](C)CO)C(=O)c2cc(NS(=O)(=O)c3cn(C)cn3)ccc2O[C@@H]1CN(C)CC1CCCCC1,25
C[C@@H]1CN([C@@H](C)CO)C(=O)c2cc(NC(=O)Cc3ccccc3)ccc2O[C@@H]1CN(C)S(C)(=O)=O,33
CC1(CO)CC(O)CC2(C)C3=C(CCC12)C(=O)OC3 (stereo unspecified),-3
Cc1noc(C)c1NC(=O)N(C)C[C@@H]1Oc2ccc(NC(=O)CCN3CCOCC3)cc2C(=O)N([C@H](C)CO)C[C@@H]1C,35
COc1ccc(S(=O)(=O)Nc2ccc3c(c2)C(=O)N([C@H](C)CO)C[C@@H](C)[C@@H](CN(C)C(=O)Nc2ccc4c(c2)OCO4)O3)cc1,-11
C[C@@H]1CN([C@@H](C)CO)C(=O)c2cc(NC(=O)CCCN(C)C)ccc2O[C@@H]1CN(C)CC1CCCCC1,-9
C[C@H](CO)N1C[C@H](C)[C@H](CN(C)S(=O)(=O)c2ccc(Cl)cc2)Oc2ccc(NC(=O)NC3CCCCC3)cc2C1=O,19
CC(NC(=O)COc1ccccc1C(C)(C)C)c1ccccc1 (stereo unspecified),115*
Cc1ccc(S(=O)(=O)N(C)C[C@@H]2Oc3ccc(NC(=O)Nc4ccc(C(F)(F)F)cc4)cc3CC(=O)N([C@@H](C)CO)C[C@@H]2C)cc1,115*
CC1(C)CC(=O)C2=C(C1)N(Cc1cccnc1)C(=O)C2(NC(=O)c1ccco1)C(F)(F)F (stereo unspecified),7
Cc1noc(C)c1S(=O)(=O)Nc1ccc2c(c1)C(=O)N([C@@H](C)CO)C[C@H](C)[C@@H](CN(C)C(=O)NC1CCCCC1)O2,17
C[C@@H]1CN([C@@H](C)CO)C(=O)Cc2cc(NC(=O)Nc3ccc4c(c3)OCO4)ccc2O[C@@H]1CN(C)C(=O)Nc1ccc2c(c1)OCO2,9
O=C(Nc1ccc(F)cc1)C(=S)NC1CCCCC1,42
CN(Cc1nc(-c2ccccc2)no1)S(=O)(=O)c1ccccc1,15
Nc1ccc2nc(SCC(=O)Nc3ccc(Oc4ccccc4)cc3)sc2c1,22
Cn1c(SCc2nc3ccccc3c(=O)[nH]2)nnc1-c1ccco1,13
Cc1ccc(S(=O)(=O)Nc2ccc3c(c2)C(=O)N([C@H](C)CO)C[C@H](C)[C@@H](CN(C)CC2CC2)OCCCC[C@@H](C)O3)cc1,24
COc1ccc(NC(=O)Nc2ccc3c(c2)CC(=O)N([C@@H](C)CO)C[C@H](C)[C@@H](CN(C)C(=O)Nc2ccc(C(F)(F)F)cc2)O3)cc1,7
Cc1ccc(S(=O)(=O)Nc2ccc3c(c2)C(=O)N([C@H](C)CO)C[C@@H](C)[C@@H](CN(C)CC2CCCCC2)O3)cc1,19
C[C@@H]1CN([C@@H](C)CO)C(=O)Cc2cc(NS(=O)(=O)c3ccccc3)ccc2O[C@@H]1CN(C)S(=O)(=O)c1cn(C)cn1,-1
NCCNc1ccc([N+](=O)[O-])c(NCCO)c1,7
COc1ccc(NC(=O)N(C)C[C@@H]2Oc3ccc(NC(=O)Nc4ccc(F)cc4)cc3CC(=O)N([C@@H](C)CO)C[C@@H]2C)cc1,17
C[C@@H]1CN([C@@H](C)CO)C(=O)c2cc(NC(=O)CCC(F)(F)F)ccc2O[C@@H]1CN(C)S(=O)(=O)c1cn(C)cn1,17
COc1ccc(S(=O)(=O)Nc2cccc3c2O[C@@H](CN(C)Cc2ccccc2)[C@@H](C)CN([C@H](C)CO)C3=O)cc1,-8
CCc1ccc(CCC(=O)Nc2ccc(C)cc2C)o1,45
O=C(COc1cc(O)c2c(=O)c3ccccc3oc2c1)c1ccc(Cl)cc1,117*
COc1ccc(CCNC(=S)NCCc2ccccc2)cc1OC,13
C[C@H]1CN([C@@H](C)CO)C(=O)c2cc(NC(=O)Nc3ccc4c(c3)OCO4)ccc2O[C@@H]1CN(C)C(=O)Nc1cccc2ccccc12,13
COc1ccc(S(=O)(=O)N(C)C[C@H]2OCCCC[C@@H](C)Oc3ccc(NC(=O)CCCCCC(=O)Nc4ccccc4N)cc3C(=O)N([C@H](C)CO)C[C@@H]2C)cc1,44
C[C@H](CO)N1C[C@H](C)[C@@H](CN(C)Cc2ccc3c(c2)OCO3)Oc2ccc(NS(=O)(=O)c3cn(C)cn3)cc2C1=O,16
COc1ccc(CN(C)C[C@@H]2Oc3c(NC(=O)Nc4ccc5c(c4)OCO5)cccc3C(=O)N([C@H](C)CO)C[C@H]2C)cc1,62

# Shown with bars between the fields: 2 of the compounds above.
canonical_smiles | NOMO-1 viab
C[C@H](CO)N1C[C@H](C)[C@@H](CN(C)Cc2ccc3c(c2)OCO3)Oc2ccc(NS(=O)(=O)c3cn(C)cn3)cc2C1=O | 16
C[C@@H]1CN([C@@H](C)CO)C(=O)c2cc(NC(=O)CCCN(C)C)ccc2O[C@@H]1CN(C)CC1CCCCC1 | -9

# The listing continues.
SMILES,NOMO-1 viab
Cc1ccc(S(=O)(=O)N(C)C[C@@H]2Oc3ccc(NC(=O)CCC(F)(F)F)cc3C(=O)N([C@H](C)CO)C[C@H]2C)cc1,-3
Cc1ccc2ccc(C(Nc3ccccn3)c3ccc(Cl)c(Cl)c3)c(O)c2n1 (stereo unspecified),117*
Cn1ccnc1CN1CCN(Cc2nccn2C)CC1,6
CC(=O)N(C)c1ccc(NC(=O)COc2ccc([N+](=O)[O-])cc2)cc1,12
C[C@@H]1CN([C@H](C)CO)C(=O)c2cc(NC(=O)Cc3cn(C)c4ccccc34)ccc2O[C@@H]1CN(C)Cc1ccncc1,19
COc1ccc(-c2nnc(SCC(=O)Nc3ccc(C)cc3C)n2-c2ccccc2)cc1OC,26
Cc1noc(C)c1NC(=O)N(C)C[C@H]1Oc2ccc(NS(=O)(=O)c3cccs3)cc2CC(=O)N([C@H](C)CO)C[C@H]1C,-10
C[C@@H]1CN([C@@H](C)CO)C(=O)c2cccc(NC(=O)NC3CCCCC3)c2O[C@@H]1CN(C)C(=O)NC1CCCCC1,15
Cc1ccc(-n2c(SCC(=O)Nc3ccccc3-c3ccccc3)nc3ccccc3c2=O)cc1,44
COc1ccc(CN2C(=O)C(O)(CC(=O)c3cccs3)c3ccccc32)cc1OC (stereo unspecified),106*
C[C@@H]1CCCCO[C@@H](CN(C)C(=O)Cc2ccccc2)[C@@H](C)CN([C@H](C)CO)C(=O)c2cc(NC(=O)CCC(F)(F)F)ccc2O1,-12
O=C(COc1ccc([N+](=O)[O-])cc1)Nc1cccc(NC(=O)c2ccccc2Cl)c1,38
Cc1[nH]c2ccccc2c1C(=O)CSc1nc2ccccc2o1,53
C[C@H]1CN([C@@H](C)CO)C(=O)c2cc(NC(=O)CCC(F)(F)F)ccc2O[C@@H]1CN(C)C(=O)Nc1ccc(C(F)(F)F)cc1,-4
COc1ccccc1Nc1nc(N)nc(CSc2nnc(C)s2)n1,22
C[C@H](CO)N1C[C@H](C)[C@@H](CN(C)C(=O)NC2CCCCC2)Oc2c(NC(=O)c3ccc(-c4nccs4)cc3)cccc2C1=O,10
CC(Sc1nnc(-c2ccc(Br)cc2)n1-c1ccccc1)C(=O)O (stereo unspecified),14
C[C@@H]1CCCCO[C@H](CN(C)C(=O)NC2CCCCC2)[C@@H](C)CN([C@H](C)CO)C(=O)c2cc(NC(=O)c3ccccc3)ccc2O1,7
Cc1ccccc1-c1nnc(SCC(=O)Nc2ccc(S(N)(=O)=O)cc2)n1C,-17
C[C@H]1CN([C@@H](C)CO)C(=O)Cc2cc(NC(=O)CCC(F)(F)F)ccc2O[C@H]1CN(C)C(=O)NC1CCCCC1,3
C[C@@H]1CCCCO[C@@H](CN(C)C(=O)Nc2ccc(C(F)(F)F)cc2)[C@@H](C)CN([C@H](C)CO)C(=O)c2cc(NC(=O)c3ccncc3)ccc2O1,8
COc1cc(OC)nc(NC(=O)CSc2nc3ccccc3s2)n1,16
Cc1ccc(S(=O)(=O)N(C)C[C@H]2Oc3c(NC(=O)NC(C)C)cccc3C(=O)N([C@@H](C)CO)C[C@@H]2C)cc1,8
CC(C)NC(=O)Nc1cccc2c1O[C@H](CN(C)Cc1ccc(-c3ccccc3)cc1)[C@@H](C)CN([C@H](C)CO)C2=O,49
Cc1ccc(NC(=O)CSc2nnc(C)s2)c(C)c1,10
O=c1[nH]c2ccc(F)cc2c(O)c1-c1ccccc1,-10
Cn1nnc(NC(=O)COc2ccc(C3CCCCC3)cc2)n1,8
Cc1noc(C)c1NC(=O)N(C)C[C@H]1Oc2ccc(NS(=O)(=O)c3ccc(Cl)cc3)cc2CC(=O)N([C@H](C)CO)C[C@H]1C,0
CC(C)NC(=O)Nc1ccc2c(c1)CC(=O)N([C@@H](C)CO)C[C@@H](C)[C@@H](CN(C)Cc1ccc3c(c1)OCO3)O2,2
Cc1noc(C)c1NC(=O)N(C)C[C@H]1Oc2ccc(NC(=O)CCCCCC(=O)Nc3ccccc3N)cc2CC(=O)N([C@@H](C)CO)C[C@@H]1C,20

# By substructure, the compounds so far with a nitro group on carbon.
SMILES,NOMO-1 viab
COc1ccc([N+](=O)[O-])cc1NC(=O)CN(c1ccc(C)cc1C)S(C)(=O)=O,-8
NCCNc1ccc([N+](=O)[O-])c(NCCO)c1,7
CC(=O)N(C)c1ccc(NC(=O)COc2ccc([N+](=O)[O-])cc2)cc1,12
O=C(COc1ccc([N+](=O)[O-])cc1)Nc1cccc(NC(=O)c2ccccc2Cl)c1,38

# Copied from the list.
# Cc1noc(C)c1NC(=O)N(C)C[C@H]1Oc2ccc(NS(=O)(=O)c3ccc(Cl)cc3)cc2CC(=O)N([C@H](C)CO)C[C@H]1C @ NOMO-1 viab: 0
# O=c1[nH]c2ccc(F)cc2c(O)c1-c1ccccc1 @ NOMO-1 viab: -10

# (continued)
SMILES,NOMO-1 viab
C=CC1(C)C=C2CCC3C(C)(C)C(O[C@@H]4O[C@@H](CO)[C@H](O)[C@H]4O)CCC3(C)C2CC1O[C@@H]1O[C@H](C)[C@@H](OC)[C@H](O)[C@H]1O (stereo partly specified),14
CC(C)(C)c1ccc(OCC(=O)Nc2ccccc2C(N)=O)c(Br)c1,23
CS(=O)(=O)N(CC(N)=O)c1ccc(F)c(Cl)c1,14
C[C@@H]1CN([C@H](C)CO)C(=O)Cc2cc(NC(=O)Nc3cccc4ccccc34)ccc2O[C@@H]1CN(C)S(=O)(=O)c1cn(C)cn1,-30
C[C@@H]1CN([C@@H](C)CO)C(=O)Cc2cc(NC(=O)CCCCCC(=O)Nc3ccccc3N)ccc2O[C@@H]1CN(C)C(=O)Nc1cccc2ccccc12,7
O=C(CN1C(=O)COc2ccc(Cl)cc21)Nc1ccc2c(c1)OCCO2,0
O=C(CSc1nnc(-c2ccco2)n1-c1ccccc1)Nc1ccnc2ccccc12,65
COC(=O)c1ccccc1NC(=O)CSc1n[nH]c(-c2ccccc2)n1,33
Cc1ccc(S(=O)(=O)Nc2ccc3c(c2)CC(=O)N([C@H](C)CO)C[C@@H](C)[C@H](CN(C)S(=O)(=O)c2c(C)noc2C)O3)cc1,10
C[C@@H]1CN([C@@H](C)CO)C(=O)c2cc(NC(=O)C3CCCCC3)ccc2O[C@H]1CN(C)C(=O)NC1CCCCC1,6
COc1cc(Cl)c(C)cc1NC(=O)Cc1ccccc1[N+](=O)[O-],10
Cc1ccc(-c2cc(C(=O)NCCCN3CCOCC3)c3cc(Br)ccc3n2)cc1,60
O=C(O)c1ccc(NC(=O)C2CC=CCC2C(=O)O)cc1 (stereo unspecified),-16
C[C@@H]1CN([C@H](C)CO)C(=O)c2cccc(NC(=O)Nc3ccccc3)c2O[C@H]1CN(C)CC1CC1,29
O=C(NCc1ccccn1)C1CC(c2ccc(Cl)c(Cl)c2)=NO1 (stereo unspecified),47

# Compound activity from PubChem.
